Screens (PubChem)
UCH37 DUB inh: inhibitors of human deubiquitinating enzyme UCH37. purified proteasome/UCH37, Ub-AMC cleavage fluorescence. inhibition, % (test concentration not listed). AID 588478. 330,000 tested, 0.33% active;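 active = mean of two replicates above 20%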;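 also: 0% = compound-free wells with enzyme and 100% = wells lacking proteasome; stock transfer was 100 nL into about 20 µL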
Target sequence (Q9Y5K5 whole entry, looked up): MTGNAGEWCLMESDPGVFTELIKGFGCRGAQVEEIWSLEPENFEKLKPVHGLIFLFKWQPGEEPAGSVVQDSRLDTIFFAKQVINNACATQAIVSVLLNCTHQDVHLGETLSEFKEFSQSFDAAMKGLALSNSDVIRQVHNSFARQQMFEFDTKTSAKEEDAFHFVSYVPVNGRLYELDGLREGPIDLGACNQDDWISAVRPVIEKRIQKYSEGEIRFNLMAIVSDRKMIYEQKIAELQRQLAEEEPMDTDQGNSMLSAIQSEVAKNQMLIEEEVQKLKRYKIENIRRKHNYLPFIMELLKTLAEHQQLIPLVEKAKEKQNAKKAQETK
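Schedule: 30 min plus 25 min, room temperature / Material: human UCH37 within purified proteasomes / Technique: AMC fluorescence intensity at 355/460 nm / Buffer or medium: pH 7.4 Tris-HCl (50 mM) with ovalbumin, ATP-MgCl2, DTT / Controls: wells without proteasome as full block, compound-free enzyme plus substrate as uninhibited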
HNF4A DNA FP: change in binding of human HNF4 alpha to DNA; P41235; HNF4a-FITC DNA binding, fluorescence polarization, 1 h; activity change, % at 10 µM; 360,000 tested, 0.3% active; in the data active = activity change above about 30%, passing the limit was not always enough;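 also: controls were the assay level and a saturating level of protein; the project sought stronger binding though the title names inhibitors; some compounds called inactive have numbers as strong as hits; positive values seem to mean higher polarization but the record does not say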
FGF22 binding: shifts melting point of recombinant human FGF22 | Q9HCT0 | recombinant FGF22 thermal shift, SYPRO orange fluorescence; percent of sucrose octasulfate shift, DMSO zero | calls only at 9.99 µM | 340,000 tested, 1.5% active | AID 651658;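 active = melting point raised past a set limit in the mean and every replicate; inconclusive = no clear call; three in four hits are not shown here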
Target sequence (Q9HCT0 whole entry, looked up): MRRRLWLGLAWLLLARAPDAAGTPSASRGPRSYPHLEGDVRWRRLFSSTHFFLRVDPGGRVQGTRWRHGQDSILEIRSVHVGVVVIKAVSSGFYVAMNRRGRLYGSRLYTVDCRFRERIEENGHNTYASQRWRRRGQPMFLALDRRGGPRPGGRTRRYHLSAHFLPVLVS
RanGTP-Impb inh: disruptors of Ran-importin-beta complex formation – biochemical, FRET, CFP-Ran, YFP-importin-beta, homogeneous, primary screen; cell-free CFP-Ran/YFP-importin-beta FRET ratio; inhibition, % (no concentration beside the values); 300,000 tested, 1.1% active;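 active = most replicates above 15%; inconclusive = exactly half above 15%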;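 also: 0% = DMSO wells and 100% = Ran loaded with GDP instead of GTP; wells of about 40 µL received 100 nL stock; the first replicate is given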
Vif TR-FRET: inhibitors of Vif binding to APOBEC3G peptide, primary screen, biochemical, TR-FRET, GST-Vif 1-94, biotin-A3G peptide, dose response retest (AID 1117319) | inhibition, %; hits with a dose series show IC50 in µM | 260,000 tested, 0.57% active | TR-FRET GST-Vif / biotin-A3G peptide binding; higher % means a stronger effect; test concentration not given here; strong numbers were not always called active;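 active = above the screen mean plus three standard deviations and confirmed in dose response; inconclusive = results disagree or hit not tested in dose response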;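 also: Vif residues 1-94 fused to GST binding biotinylated APOBEC3G peptide 110-148; 0% = full assay without inhibitor and 100% = GST in place of GST-Vif; retest series ran down from 100 µM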
MLL AF4-AF9 inh: MLL-AF4/AF9 protein interaction inhibition. P42568. AlphaScreen, biotin-AF4 peptide binding to FLAG-AF9. 350,000 tested, 0.47% active. inhibition, % at 10 µM;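 active = every replicate reaching a set inhibition limit, whatever the replicate mean, cut at about 25% in these data; inconclusive = mean inhibition reaches that limit but some replicates miss it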;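 also: 0% = plate neutral control median and 100% = total signal loss; the record names both 10 and 1 µM as test concentration; the first replicate is given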
Target sequence (P42568 whole entry, looked up): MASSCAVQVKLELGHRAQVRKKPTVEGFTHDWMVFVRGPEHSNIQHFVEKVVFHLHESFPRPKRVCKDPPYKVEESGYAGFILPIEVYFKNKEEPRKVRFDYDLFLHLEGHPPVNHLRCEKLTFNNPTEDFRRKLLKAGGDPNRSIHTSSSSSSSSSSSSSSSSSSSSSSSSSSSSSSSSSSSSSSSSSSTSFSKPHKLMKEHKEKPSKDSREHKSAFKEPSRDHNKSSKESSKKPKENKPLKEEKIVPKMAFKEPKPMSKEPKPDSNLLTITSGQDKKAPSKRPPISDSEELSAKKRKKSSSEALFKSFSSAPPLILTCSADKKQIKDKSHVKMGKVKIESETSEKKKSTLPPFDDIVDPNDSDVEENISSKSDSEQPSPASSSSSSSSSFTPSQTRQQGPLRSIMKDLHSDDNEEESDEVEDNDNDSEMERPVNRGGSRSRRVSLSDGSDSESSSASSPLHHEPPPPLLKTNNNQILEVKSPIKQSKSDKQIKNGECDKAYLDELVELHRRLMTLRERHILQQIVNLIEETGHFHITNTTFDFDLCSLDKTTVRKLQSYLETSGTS
E coli growth: E. coli growth inhibition; AID 1053175; OD600 absorbance (concentration not given with the values); Escherichia coli growth, OD600, 23 h; active compounds read low; 330,000 tested, 0.21% active;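 active = OD600 absorbance below the run mean of sample wells minus 3.6 SD, in any replicate, cut at about 0.56 in these data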;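 also: stock transfer was 300 nL into about 60 µL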
* = called active by the depositor; i = inactive; ? = inconclusive; . = not tested or not shown; & = joins results of further samples.

SMILES	UCH37 DUB inh	HNF4A DNA FP	FGF22 binding	RanGTP-Impb inh	Vif TR-FRET	MLL AF4-AF9 inh	E coli growth
CSCc1nnc(NC(=O)c2ccc(S(=O)(=O)N3CCCCC3C)cc2)o1 (stereo unspecified)	0.4	0.6	i	1.4	6%	9.6	0.63
c1cnc(N2CCN(Cc3ccc4c(c3)OCO4)CC2)nc1	4.5&5.5	-1.7&0.8	i	-2.4	-8%&3%	0.8&-1.6	0.68&0.68
Cn1c(=O)[nH]c(NC2CCCCC2)c([N+](=O)[O-])c1=O	13	0.8	.	-3.2	4%	.	0.67
Cn1c(=O)[nH]c(=O)c2c1nc(CN1CCN(c3cccc(Cl)c3)CC1)n2CCN1CCOCC1	-1.0	0.5	.	-0.6	29%&2%	.	0.66
O=C(CNCCO)Nc1ccc(F)c(Cl)c1	2.3	-0.7	i	1.2	-6%	-7.1	0.71
CC(C)NC(=O)NC(=O)CSc1ncc(C(F)(F)F)cc1Cl	4.3	2.4	.	3.6	-3%	.	0.72
CCC(=O)N1CCc2cc(S(=O)(=O)NCCC(=O)Nc3cc(C)cc(C)c3)ccc21	0.3	3.1	.	0.5	-8%	.	0.65
COc1cccc(C(=O)NCc2cn3ccsc3n2)c1	-0.9	2.9	i	0.3	-4%	5.5	0.74
CCCSc1nnc(-c2cnn(-c3ccccc3)c2-n2cccc2)n1C	1.4	-3.3	.	-1.5	1%	.	0.74
COc1ccccc1-c1ccc(=O)n(CC(=O)NC2CCc3ccccc32)n1 (stereo unspecified)	0.9	-0.8	i	1.4	-3%	-1.8	0.69
CC(=O)Nc1ccc(NC(=O)C(C)OC(=O)c2cccs2)cc1 (stereo unspecified)	2.4	3.1	i	.	.	-2.1	0.69
CCCCOc1ccc(OCCNC(=O)C2CCCN2C(=O)Nc2ccccc2)cc1 (stereo unspecified)	3.3	-1.7	i	8.2	.	-1.2	0.7
CC1CCN(CCC(=O)Nc2ccc3c(c2)CCC3)CC1	0.3	2.8	.	1.8	.	.	0.71
CSc1cccc(NC(=O)c2c(Cl)cnn2C)c1	2.8	3.0	.	0.4	11%	5.2	0.65
CN(CC(=O)Nc1ccc(Cl)cc1)C(=O)c1cccc(S(=O)(=O)N2CCN(Cc3ccccc3)CC2)c1	5.0	0.3	i	5.9	1%	-6.0	0.69
COc1cccc(C2=NOC(C(=O)Nc3cc(OC)c(OC)c(OC)c3)C2)c1 (stereo unspecified)	-0.3	-1.8	.	2.1	-2%	.	0.69
COCCNS(=O)(=O)c1cccn1-c1ncc(C(F)(F)F)cc1Cl	5.8	2.8	.	2.6	9%	.	0.73
O=c1c2[nH]c3cccc(Cl)c3c2ncn1Cc1ccco1	0.3	0.4	i	-0.8	-7%	-6.0	0.69
CCOc1ccc(C(=O)NCC(=O)OCC(=O)c2ccc3c(c2)-c2ccccc2C3)cc1	-2.2	0.3	i	-4.6	.	-1.1	0.67
COc1ccc2cc(C(=O)C3CCCN(C(=O)CCc4cnn(C)c4)C3)ccc2c1 (stereo unspecified)	-482	2.9	.	-1.4	-7%	-0.6	0.72
CCCCn1c(N)c(N(Cc2ccccc2)C(=O)COc2ccccc2F)c(=O)[nH]c1=O	0.7	-0.6	.	.	-5%	-1.2	0.7
CN(C(=O)c1cccc(NC(=O)Cc2ccccc2)c1)c1ccccc1	1.1	2.4	i	1.4	.	-18	0.66
CC(=O)NC(Cc1ccc(C)cc1)C(=O)NC1CCN(c2ncccc2[N+](=O)[O-])CC1 (stereo unspecified)	5.2	3.5	i	3.0	.	4.6	0.7
CCOC(=O)c1c(C)sc(Sc2ccc(Cl)cc2[N+](=O)[O-])c1OC	2.0	3.4	.	-4.1	-2%	.	0.7
CSc1cc(-c2ccc(Cl)cc2)n(Cc2ccccc2)c(=O)c1C#N	-40	-3.2	.	0.1	-2%	.	0.89
Cc1ccc2c(c1)N(CC(=O)NCCC1=CCCCC1)C(=O)c1cccnc1O2	4.4	-1.2	i	-1.4	1%	0.4	0.76
Fc1ccc(-c2nnc(CSc3nnc(-c4ccc5c(c4)OCO5)o3)o2)cc1	-1.1	-1.6	.	3.7	-10%	.	0.7
COc1cc(CC(=O)OCC(=O)NCCc2ccc(S(N)(=O)=O)cc2)cc(OC)c1OC	0.6	0.1	i	.	.	-1.0	0.65
COCCCNC(=O)Cn1c(=O)n(Cc2ccccc2Cl)c(=O)c2cc(OC)c(OC)cc21	-2.9	1.8	.	4.1	-2%	-9.1	0.66
O=C(Nc1ccncc1)c1ccc(NS(=O)(=O)c2cccc(F)c2)cc1	3.5	-0.5	i	2.1	-7%	-5.2	0.63
COc1ccc(S(=O)(=O)Nc2cc(C)cc(C)n2)c2ccccc12	-1.4	-1.9	.	-0.4	4%	.	0.7
CC(C)CN1CN(Cc2ccco2)CNC1=S	-0.2	4.0	.	1.3	.	.	0.71
CCOC(=O)CC1C(=O)NCCN1C(=O)c1sc2ccccc2c1Cl (stereo unspecified)	0.9	1.1	i	-1.5	5%	1.5	0.68
CN1CCN(c2ccc(CNS(=O)(=O)c3ccccc3)cc2)CC1	3.2	-2.2	i	3.7	19%	-4.2	0.65
COc1ccc(/C=C/C(=O)Nc2ccc(OC)nc2)cc1	6.0	1.2	i	0.4	0%	-1.1	0.67
CCOc1ccc(-n2c(-c3ccccc3)c[n+]3c2CCCCC3)cc1	1.2	0.5	i	0.4	2%	-0.6	0.68
Oc1ccccc1C1CC(c2cccs2)=NC(c2ccc(Cl)cc2)N1 (stereo unspecified)	2.3	8.1	i	4.1	?	7.5	0.61
COc1ccc(Cl)cc1C(=O)Nc1ccc(NC(=O)C(C)C)cc1	-18	1.4	i	-5.3	7%	0.3	0.69
Cc1ccc(CNC(=O)c2ccc(CS(=O)Cc3cccc(Cl)c3)o2)cc1 (stereo unspecified)	0.4	1.7	i	9.2	.	-1.5	0.66
Cc1ccc(NC(=O)Cn2nc(-c3ccccc3Cl)ccc2=O)c(Br)c1	5.6	3.4	i	-0.6	-20%	-0.4	0.72

Only FGF22 binding and UCH37 DUB inh, for 3 of the compounds above:
SMILES	FGF22 binding	UCH37 DUB inh
CCOC(=O)c1c(C)sc(Sc2ccc(Cl)cc2[N+](=O)[O-])c1OC	.	2.0
CSc1cc(-c2ccc(Cl)cc2)n(Cc2ccccc2)c(=O)c1C#N	.	-40
Cc1ccc2c(c1)N(CC(=O)NCCC1=CCCCC1)C(=O)c1cccnc1O2	i	4.4

Additional records.
SMILES	UCH37 DUB inh	HNF4A DNA FP	FGF22 binding	RanGTP-Impb inh	Vif TR-FRET	MLL AF4-AF9 inh	E coli growth
CC(Sc1nnc(COc2ccc(Cl)cc2)o1)C(=O)Nc1ccc(N2CCOCC2)cc1 (stereo unspecified)	0.8	-2.8	i	.	7%	-1.5	0.67
Cc1cc(C)n(CC(O)CN(c2ccccc2)S(=O)(=O)c2ccccc2)n1 (stereo unspecified)	2.8	0.3	.	5.5	7%	.	0.76
COc1ccc(S(=O)(=O)Nc2cccc(S(=O)(=O)N(C)C)c2)cc1[N+](=O)[O-]	.	1.8	i	.	.	0.4	.
CCc1ccc(NC(=O)c2c(C(=O)Nc3ccccc3)sc3nc(C)cc(=O)n23)cc1	1.5	2.0	i	-1.6	-1%	0.5	0.66
CN(C(=O)CSC(=O)c1ccccc1)c1ccccc1	3.4	-1.7	i	-3.4	.	-1.4	0.69
Cn1cnnc1SCC(=O)Nc1cc(C(F)(F)F)ccc1N1CCOCC1	2.6	2.5	i	0.3	?	-6.7	0.7
Cc1ccc(C)c(C2=CSC3=NS(=O)(=O)CCN23)c1	1.8	1.9	.	1.9	7%	.	0.68
COc1ccc(CNC(=O)C2CCN(c3nnc(N4CCCC4=O)s3)CC2)cc1	3.2	1.6	i	-4.8	.	4.1	0.79
CC(=O)Nc1nc(C)c(-c2csc(Nc3cccc([N+](=O)[O-])c3)n2)s1	4.7	-3.1	.	?	5%	.	0.64
O=C(NCc1ccc(Cl)s1)c1cc(COc2c(F)cccc2F)on1	1.5	-3.8	i	?	-4%	-7.8	0.67
O=C(Nc1c(-c2ccc(Cl)cc2)[nH][nH]c1=O)c1ccccc1Cl	.	0.6	i	.	.	-2.2	.
COC(=O)c1cccc(NC(=O)CSc2nnc(COc3ccccc3)n2C)c1	-0.9	-1.2	.	4.6	1%	.	0.64
COc1cc(NS(=O)(=O)c2ccc(N/C=C\C(=O)c3ccc(OC)c(OC)c3)cc2)nc(OC)n1	-6.5	4.6	i	0.5	11%	-0.8	.
CCCc1cc(=O)[nH]c(SCC(=O)Nc2cc(S(=O)(=O)N3CCOCC3)ccc2N(CC)CC)n1	2.1	0.3	i	.	10%	6.6	0.71
Clc1ccc(-n2ncc3c(NCc4ccco4)ncnc32)cc1	2.0	-3.5	.	-1.2	16%	.	0.69
COc1cc(NC(=O)CN2C(=O)NC(C)(c3ccccc3)C2=O)c(C)cc1[N+](=O)[O-] (stereo unspecified)	3.6	1.1	.	8.5	10%	.	0.67
CCCn1c(=N)n(CC(=O)c2ccc(Cl)cc2)c2ccccc21	2.9	3.1	i	1.7	-8%	0.3	0.63
O=C(CN1CCCC1)Nc1ccc(Oc2ccc(NC(=O)CN3CCCC3)cc2)cc1	3.9	0.0	.	-2.5	-2%	.	0.68
COc1ccc(C(=O)NCc2nnc(SCC(=O)Nc3cc(Cl)ccc3OC)o2)cc1	3.5	-0.8	i	3.7	.	-2.3	0.72
NC(=S)N/N=C/c1cn(CCC(=O)O)nc1-c1cccc(Br)c1	.	-0.7	i	-1.3	-2%	-6.2	.

Arranged by value in RanGTP-Impb inh (falling): some entries from above
mol	RanGTP-Impb inh
COc1cc(NC(=O)CN2C(=O)NC(C)(c3ccccc3)C2=O)c(C)cc1[N+](=O)[O-] (stereo unspecified)	8.5
COC(=O)c1cccc(NC(=O)CSc2nnc(COc3ccccc3)n2C)c1	4.6
COc1ccc(CNC(=O)C2CCN(c3nnc(N4CCCC4=O)s3)CC2)cc1	-4.8

(list continues)
SMILES	UCH37 DUB inh	HNF4A DNA FP	FGF22 binding	RanGTP-Impb inh	Vif TR-FRET	MLL AF4-AF9 inh	E coli growth
CC(=O)c1ccc(NC(=O)CN2C(=O)COc3ccc(S(=O)(=O)N4CCCC4)cc32)cc1	0.2	4.6	i	5.1	.	-0.9	0.63
CCCNC(=O)COc1coc(CN2CCN(c3ccccc3F)CC2)cc1=O	4.2	-1.1	i	2.8	.	1.0	0.67
Cc1ccc(S(=O)(=O)Nc2ncccn2)cc1	1.7	1.4	i	2.2	.	-3.0	0.66
C=CCOc1ccc(C=Nc2ccc(C)c(Cl)c2)c(O)c1	6.2	0.9	.	3.5	0%	.	0.72
COc1ccccc1-c1nnc(SC(C(=O)c2c[nH]c3ccccc23)c2ccccc2)n1C (stereo unspecified)	2.9	-0.3	i	?	19%	-0.7	0.73
CCc1nc2c(OCCc3cccc(OC)c3)cccn2c1N(C=O)Cc1ccccc1	.	3.1	i	.	.	0.6	.
Cc1ccc2c(c1)NC(=O)C(CC(=O)NCc1ccc(F)cc1)O2 (stereo unspecified)	3.9	1.9	i	-1.6	-2%	-4.0	0.76
COc1cccc(NC(=O)CN(C)C(=O)c2ccc(-c3ccccc3Cl)o2)c1	2.8	1.9	i	1.0	-1%	-0.6	0.71
COc1ccc(Nc2nccc(-c3cccc(N)c3)n2)cc1	6.0	2.4	i	2.1	-8%	3.6	0.65
CC1C(O)=C(c2ccccc2)P(=O)(Cc2ccccc2)C1C (stereo unspecified)	.	3.2	i	.	.	-7.3	.
COC(=O)N1CCCCC1c1cc(C(=O)NCc2ccccc2)no1 (stereo unspecified)	.	3.2	i	.	.	-2.6	.
CCOC(=O)Cn1nnc(-c2ccccc2)n1	2.4	0.4	.	1.0	.	.	0.71
O=Nc1c(O)n(Cc2ccc(Cl)cc2Cl)c2ccccc12	3.4	-1.8	.	4.9	-3%	.	0.65
Nc1nc(-c2ccccc2Cl)cs1	.	-5.9	i	.	.	2.7	.

Some of the compounds tested; rates above refer to the full screens.
